Screening data from PubChem.
Calb FLC – affects C. albicans growth with fluconazole; actives 0.57% (n = 300,000); growth inhibition, % (test concentration not listed); C. albicans CaCi-2 (fluconazole-resistant clinical isolate) + fluconazole, Alamar Blue growth, 48 h;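 active = most replicates above 75%; inconclusive = exactly half above 75%; inactive = most below 75%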;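 note: all wells also contain fluconazole at 8 µg/ml as a sub-toxic cotreatment; 0% = median of DMSO wells and 100% = median of geldanamycin control wells; wells of about 8 µL received 7.5 nL stock; the first replicate is given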
Beta apoptosis – beta cell apoptosis inhibition. INS-1E cytokine-induced death, ATP luminescence, 48 h; percent of positive-control rescue, neutral wells zero. protection from apoptosis, % (test concentration not listed). actives 0.8% (n = 300,000). AID 435005;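 active = all replicates at 75% or more, or half of them and the mean; inconclusive = half reach 75% but not the mean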;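 note: 0% = cytokine-treated negative control wells and 100% = positive control rescue; higher means more ATP so stronger rescue from cytokine killing; wells of about 40 µL received 100 nL stock; the first replicate is given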
rRNA inh HTS – selective bacterial rRNA inhibition in E. coli | E. coli WT GFP vs humanized-ribosome RFP mutants, fluorescence, 24 h; hits give low values; DMSO median 0, no signal -100 | actives 1.6% (n = 350,000) | AID 720706 | GFP signal change (wild-type ribosome), % (test concentration not listed);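 active = significant combined selectivity score with lowered wild-type GFP, culture density cut under 30%, mutant RFP and density less affected; inactive = any of these conditions unmet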; note: one replicate is shown; some compounds called inactive have numbers as strong as hits
LANA-H2A inh – blocks KSHV LANA binding to histone H2A/H2B; Q9QR71; cell-free LANA-H2A/H2B peptide, fluorescence polarization; inhibition, % (test concentration not listed); actives 0.6% (n = 320,000); in the data active = inhibition mostly above about 10%, no sharp cut-off; inactive = mostly below about 6.7%;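 note: stock transfer was 7.5 nL into about 10 µL; 0% = median of vehicle wells and 100% = median of positive control wells; one replicate is shown; the record names a cut of 25% in any replicate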
Target sequence (Q9QR71 whole entry, looked up): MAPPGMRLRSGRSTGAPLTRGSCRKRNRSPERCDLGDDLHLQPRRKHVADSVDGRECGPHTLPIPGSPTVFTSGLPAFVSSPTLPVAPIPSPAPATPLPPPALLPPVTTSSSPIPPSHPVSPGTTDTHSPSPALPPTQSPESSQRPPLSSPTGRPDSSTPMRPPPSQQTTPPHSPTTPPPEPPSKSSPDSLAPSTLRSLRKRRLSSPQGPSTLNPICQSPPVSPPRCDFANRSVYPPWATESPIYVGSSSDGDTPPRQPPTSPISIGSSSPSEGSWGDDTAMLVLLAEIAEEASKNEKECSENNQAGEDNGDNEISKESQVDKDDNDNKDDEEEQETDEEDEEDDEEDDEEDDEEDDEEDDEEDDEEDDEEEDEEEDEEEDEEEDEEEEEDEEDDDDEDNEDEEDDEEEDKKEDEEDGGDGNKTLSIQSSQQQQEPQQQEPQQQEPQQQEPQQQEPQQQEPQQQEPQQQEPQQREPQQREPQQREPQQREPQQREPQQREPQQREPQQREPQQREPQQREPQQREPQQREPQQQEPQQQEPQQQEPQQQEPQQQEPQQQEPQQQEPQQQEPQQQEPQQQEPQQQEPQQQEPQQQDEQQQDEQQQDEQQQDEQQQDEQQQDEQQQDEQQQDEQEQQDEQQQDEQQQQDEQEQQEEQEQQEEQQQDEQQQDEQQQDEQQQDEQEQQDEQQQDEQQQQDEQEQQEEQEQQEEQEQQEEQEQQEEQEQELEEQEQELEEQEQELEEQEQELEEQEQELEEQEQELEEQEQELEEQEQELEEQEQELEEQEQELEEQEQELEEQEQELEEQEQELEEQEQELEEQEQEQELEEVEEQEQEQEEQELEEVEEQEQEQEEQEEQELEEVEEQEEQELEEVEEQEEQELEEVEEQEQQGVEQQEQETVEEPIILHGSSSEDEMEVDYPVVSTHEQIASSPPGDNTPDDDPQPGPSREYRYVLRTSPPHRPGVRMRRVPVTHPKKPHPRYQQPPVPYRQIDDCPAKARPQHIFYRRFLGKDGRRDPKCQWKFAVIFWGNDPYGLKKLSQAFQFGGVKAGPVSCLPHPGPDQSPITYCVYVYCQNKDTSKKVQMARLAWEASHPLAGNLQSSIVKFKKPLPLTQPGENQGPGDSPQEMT
ALR inh – blocks human ALR sulfhydryl oxidase activity; P55789; inhibition, % (concentration not given with the values); purified ALR, DTT oxidation, H2O2 HRP-luminol luminescence; actives 3.8% (n = 290,000);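 active = mean and each replicate at 75% or more; inconclusive = only one of the two met; inactive = neither met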;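 note: stock transfer was 7.5 nL into about 7.5 µL; 0% = neutral wells and 100% = wells with inactivated enzyme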
T cruzi repl – blocks replication of Trypanosoma cruzi; AID 1885; actives 1.4% (n = 300,000); inhibition, % (test concentration not listed); T. cruzi beta-gal in NIH3T3, luminescence, 90 h;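 active = mean inhibition across valid replicates above about 55%, limit read from the data; inconclusive = mean below that limit but half or more replicates reach it; inactive = mean below it, under half of replicates reach it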;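 note: signal also drops with host cell toxicity which is not excluded here; 0% = plate median of DMSO wells and 100% = zero luminescence signal; higher percent means less beta-gal luminescence so fewer parasites; stock transfer was 50 nL into about 50 µL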
Bfl-1 A1 inh – inhibitors of the anti-apoptotic protein A1, read as caspase activation | actives 0.066% (n = 330,000) | caspase activation, % (concentration not given with the values) | MEF A1-2A-BIM cells, Caspase-Glo 3/7 luminescence, 3 h; percent of clofoctol response, vehicle zero;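 active = over half of replicate activation scores above 10%, or exactly half above 10 with the replicate mean above 10; inconclusive = replicate mean below 10 yet half the replicates above 10; inactive = over half of replicates below 10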;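 note: wells of about 30 µL received 50 nL stock; many hits fall short of the cut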
B2AR ag – human beta-2 adrenergic receptor agonism by FAP | P07550 | Am2.2-beta2AR cells, FAP receptor internalization, flow cytometry; reference of the scale not given here | response, % (test concentration not listed) | actives 0.43% (n = 340,000) | AID 504454;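 active = response above a set limit, near 3 SD of response in nonfluorescent compounds, cut at about 42% in these data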;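 note: stock transfer was 100 nL into about 11 µL; a reference agonist was the positive control; negative values mostly stem from fluorescent compounds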
rRNA inh HTS OD600 – further read-out of rRNA inh HTS, marked with its call; OD600 change, %; measured here: OD600 growth;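 optical density of the mix in the first replicate; 0 = DMSO median and -100 = no signal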
rRNA inh HTS RFP – second read-out of rRNA inh HTS, no call of its own (marks repeat the call); RFP signal change, %; measured here: RFP humanized mutant strains;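 first replicate; 0 = DMSO median and -100 = no signal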
Active calls of the source: *; ? = inconclusive; nt = no result given.

Values run as follows: Calb FLC	Beta apoptosis	rRNA inh HTS	rRNA inh HTS OD600	rRNA inh HTS RFP	LANA-H2A inh	ALR inh	T cruzi repl	Bfl-1 A1 inh	B2AR ag
> COc1ccc(CN2CCN(C(=O)c3cccc(OC)c3OC)CC2)cc1OC
→ -5	2	14	2	1.5	2.1	-6	-18	0.0	-1
> N#CCSc1ccc(S(=O)(=O)N2CCOCC2)cn1
→ nt	0	7	15	-3.3	1.5	-6	nt	0.1	6
> COc1ccc(COC(=O)N/N=C(\C)CC(=O)Nc2ccc(Cl)cn2)cc1
→ 3	0	0	-23	-1.7	1.5	19	2	-0.7	-6
> COC(=O)c1cc(NC(=O)N2c3ccccc3Sc3ccccc32)cc(C(=O)OC)c1
→ 22	22	-7	1	2.5	0.4	-22	34	0.9	6
> NC(=O)c1c(Nc2nc3c(F)cccc3s2)sc2c1CCCC2
→ 19	-4	nt	nt	nt	1.7	87*	-14	0.0	-24
> O=C(CNS(=O)(=O)c1cccc2nsnc12)NCc1ccc(Cl)cc1
→ -6	-1	nt	nt	nt	-3.6	-26	-8	0.8	-3
> Cc1sc(NC(=O)CCCC(=O)O)c(C(N)=O)c1-c1ccccc1
→ ?	-2	-5	-10	-2.8	5.7	0	0	-3.1	-2
> Clc1ccc2nc(COc3ccccc3)[nH]c2c1
→ 0	9	-9	-8	1.3	0.1	-9	-6	-0.5	-15
> COc1cccc(-c2sc3ccc(OC)cc3c2-c2cc(F)cc(OC)c2)c1
→ nt	-4	6	0	-3.9	5.6	-3	nt	-1.0	-3
> O=S(=O)(NC1CCCC1)c1ccc(S(=O)(=O)N(Cc2cccs2)CC2CCCO2)cc1 (stereo unspecified)
→ 4	8	-30*	-18*	-3.2*	1.0	-8	10	-0.2	6
> CC(C)N(Cc1ccccc1)C(=O)CN1C(=O)NC2(CCCC2)C1=O
→ nt	2	17	10	2.7	6.1	-1	nt	-0.3	-5
> CC(C)NC(=O)Cn1cc(C(=O)COc2ccccc2)c2ccccc21
→ 2	nt	10	2	-6.4	-1.6	5	-6	-0.6	0
> Cc1cccc(Nc2c([N+](=O)[O-])c(=O)oc3ccccc23)c1
→ -5	1	-5	9	-4.5	1.1	-5	-30	-0.7	-3
> O=C(Cn1ncc2c1-c1ccccc1OC2)Nc1ccc(Cl)cn1
→ -5	3	-4	-11	4.2	17	-3	-8	1.2	-1
> Brc1cc2c(cc1/C=N/Nc1nc(N3CCCC3)nc(N3CCOCC3)n1)OCO2
→ -27	6	nt	nt	nt	-3.4	-12	15	0.1	12
> COc1ccccc1NS(=O)(=O)c1ccc(C(=O)OCC(=O)NCc2ccco2)cc1
→ 12	-5	nt	nt	nt	-0.9	-27	-4	0.3	4
> CC1CN(C(=O)c2ccc(COc3ccc(C(C)C)cc3)o2)CC(C)O1 (stereo unspecified)
→ -2	-3	-16	-20	-7.0	13	2	1	-0.1	4
> CCC(=O)N1CCc2cc(S(=O)(=O)CCC(=O)N3CCN(c4ccccc4)CC3)ccc21
→ -1	-1	-11	3	-6.5	0.7	14	-2	0.6	-15
> CC(C)(Oc1ccc(Cl)cc1)C(=O)NCCN1C(=O)S/C(=C/c2cccnc2)C1=O
→ -8	-10	nt	nt	nt	-1.1	-6	-6	-1.3	-14
> O=C(CN1C(=O)NC2(CCCC2)C1=O)NNC(=O)c1ccccc1F
→ nt	1	15	7	-1.9	-3.2	nt	nt	2.3	-3
> Cc1ccc(S(=O)(=O)N(CC(=O)N2CCCCCC2)c2ccccc2)cc1
→ -5	-7	nt	nt	nt	-2.2	-6	9	-0.4	-3
> CCCCN1CC(=O)N2[C@H]3c4cc(OC)ccc4OC[C@@H]3[C@H](C(=O)OCC)[C@]2(C)C1=O
→ nt	-3	5	8	-0.4	1.7	-3	nt	1.3	-1
> O=C(NC(=S)NCC1CCCO1)c1ccccc1 (stereo unspecified)
→ -1	2	13	5	5.0	0.0	3	-3	0.6	-9
> Cc1cc2ccccc2c(=O)n1CC(=O)N1CCN(c2cccc(Cl)c2)CC1
→ 1	-1	nt	nt	nt	-1.7	-10	-12	1.4	3
> N#C/C(=C\Nc1ccccc1SC(F)(F)F)c1nc(-c2ccc(Cl)cc2)cs1
→ -7	5	-4	4	-2.9	-0.3	-2	6	0.4	-13
> Cc1ccc2c(c1)c1n[nH]c(=S)nc1n2CCc1ccccc1
→ 1	9	9	2	1.1	-0.2	9	69*	-0.1	5
> CC1CC(C)CN(C(=O)c2cccc(S(=O)(=O)Nc3cc(C(F)(F)F)ccc3Cl)c2)C1 (stereo unspecified)
→ 38	1	-13	-14	-4.7	-2.9	3	3	0.9	4
> Cc1nnc(SCC(=O)NNC(=O)c2ccco2)s1
→ 3	-9	1	5	-2.5	-0.8	1	-6	1.5	4
> C=CCn1c(NC(C)c2cc(Cl)ccc2O)nc2ccccc21 (stereo unspecified)
→ 23	12	-51	-78	-11	2.6	40	38	0.6	16
> Cc1ccc(CNS(=O)(=O)c2ccccc2[N+](=O)[O-])cc1
→ 3	3	-7	-2	1.6	2.5	-21	-9	-0.1	0
> CC(OC(=O)/C(C#N)=C/c1ccc(N(C)C)cc1)C(=O)N(C)Cc1ccccc1 (stereo unspecified)
→ -26	-5	1	-4	-0.7	-8.1	-8	4	-0.4	-8
> Cc1ccc([C@@H]2CC=C(C(=O)O)[C@H](c3ccc(Cl)cc3)N2S(=O)(=O)c2ccccc2C)cc1
→ nt	-6	-38	-47	-9.8	2.2	nt	nt	-0.4	1
> CCN(CC)C(=O)CCCOc1ccc(Cl)cc1Cl
→ 13	-5	nt	nt	nt	-0.1	-11	-6	0.9	-20
> COc1ccc(-n2c(C)cc(C(=O)CN3C(=O)NC4(CCCc5sccc54)C3=O)c2C)cc1 (stereo unspecified)
→ 16	40	nt	nt	nt	-6.0	-7	26	0.4	11
> COc1ccccc1N(CC(O)COc1ccccc1C)S(=O)(=O)c1ccccc1 (stereo unspecified)
→ -5	-2	-30	-46	-19	1.7	-6	0	-1.2	1
> Cc1ccc(C(C[N+](=O)[O-])c2c(-c3ccccc3O)[nH][nH]c2=O)cc1 (stereo unspecified)
→ ?	4	nt	nt	nt	-7.9	86*	6	1.1	18
> O=P(O)(COc1ccccc1)COc1ccccc1
→ -19	-1	nt	nt	nt	5.5	-3	-15	0.5	-1
> COCCCNC(=O)/C(C#N)=C/c1c(N2CCN(c3cccc(Cl)c3)CC2)nc2c(C)cccn2c1=O
→ 6	8	-1	-4	-2.9	-1.0	-2	25	-0.2	-38
> O=C(NC(Cc1c[nH]c2ccccc12)C(=O)NCCCN1CCOCC1)c1cccs1 (stereo unspecified)
→ -4	-4	16	1	2.5	-0.3	-6	-1	1.3	-8
> NC(=O)c1ncc(C(F)(F)F)cc1Cl
→ 2	-6	11	5	2.2	3.7	2	-8	0.1	-1
> CCN1C(=O)C(CC(=O)Nc2ccc(OC)cc2)N(CCc2ccccc2)C1=S (stereo unspecified)
→ 0	10	-26	-32	-1.2	-2.7	-94	nt	-0.2	-1
> Cc1ccc(C2(C)NC(=O)N(CC(=O)N(C)CC(=O)Nc3cccc4ccccc34)C2=O)cc1 (stereo unspecified)
→ 12	0	-1	-4	4.8	-2.3	-41	-9	0.8	-2
> CCc1cccc(OCCN2CCCC2)c1
→ 4	-6	0	1	-6.2	-1.7	1	15	0.7	1
> COc1cccc(C(=O)N(CN2CCCC2=O)c2cccc(Cl)c2)c1OC
→ -6	-4	nt	nt	nt	-4.3	-6	-1	-0.2	-12
> O=C(CC1C(=O)NCCN1Cc1ccc(-c2ccccc2)cc1)NCC1CC1 (stereo unspecified)
→ -20	0	-3	1	0.3	4.0	-4	-2	0.4	-12
> CCN(CC)CCn1c2c(c(SCC(=O)Nc3cccc(C(C)=O)c3)nc1=O)CCCC2
→ 24	nt	9	9	0.4	nt	nt	13	nt	7
> Cc1cc(C(=O)Nc2sc(C)c(C)c2C#N)no1
→ 1	-5	nt	nt	nt	1.1	9	-10	0.7	1
> CC(C)OCCCNC(=S)Nc1ccc(S(N)(=O)=O)cc1
→ 11	-4	16	4	-7.9	-1.7	-4	-28	0.0	1
> Cc1ccc(C)c(Cn2nnc3c(=O)[nH]c(C4CCN(C(=O)c5cccs5)CC4)nc32)c1
→ 6	11	nt	nt	nt	-7.4	0	2	1.1	0
> Cc1cc(C)nc(SCc2ccc(F)cc2)n1
→ -37	0	3	-6	-1.4	2.4	0	-11	-0.3	-7

Three compounds already listed, arranged by length of the SMILES, falling.
Values run as follows: Calb FLC	Beta apoptosis	rRNA inh HTS	rRNA inh HTS OD600	rRNA inh HTS RFP	LANA-H2A inh	ALR inh	T cruzi repl	Bfl-1 A1 inh	B2AR ag
> CCN1C(=O)C(CC(=O)Nc2ccc(OC)cc2)N(CCc2ccccc2)C1=S (stereo unspecified)
→ 0	10	-26	-32	-1.2	-2.7	-94	nt	-0.2	-1
> CC(C)OCCCNC(=S)Nc1ccc(S(N)(=O)=O)cc1
→ 11	-4	16	4	-7.9	-1.7	-4	-28	0.0	1
> Cc1cc(C(=O)Nc2sc(C)c(C)c2C#N)no1
→ 1	-5	nt	nt	nt	1.1	9	-10	0.7	1

Carrying on:
Values run as follows: Calb FLC	Beta apoptosis	rRNA inh HTS	rRNA inh HTS OD600	rRNA inh HTS RFP	LANA-H2A inh	ALR inh	T cruzi repl	Bfl-1 A1 inh	B2AR ag
> CN(CCC1CCCCO1)C(=O)CCc1nnc(C2CCCCC2)o1 (stereo unspecified)
→ 7	4	14	17	5.0	2.2	-15	-19	0.0	-7
> CC(CCc1ccccc1)NC(=O)c1ccncc1 (stereo unspecified)
→ -3	-2	nt	nt	nt	-0.1	-1	6	-1.7	10
> CCOc1ccccc1C(=O)n1nc(C)cc1C
→ 2	nt	nt	nt	nt	1.1	2	4	-1.1	5
> CC1=NN(C(=O)CCCc2ccccc2)C(O)(C(F)(F)F)C1 (stereo unspecified)
→ -9	-8	-11	-2	-2.0	-4.5	-4	16	0.1	5
> CCCCc1nc2cc(C(=O)N3CCC(O)CC3)ccc2o1
→ -9	nt	14	13	-2.3	nt	nt	-7	nt	-1
> COc1ccc(C2C(C(C)=O)=C(C)Nc3ncnn32)c(OC)c1OC (stereo unspecified)
→ nt	-6	16	8	3.1	2.3	14	-18	0.1	-7
> CCOc1ccc(N(CC)C(=O)COc2cc(=O)n(CC)c3ccccc23)cc1
→ -2	9	nt	nt	nt	2.3	-6	2	0.9	11

ALR inh, entries above that show a hit.
compound	rRNA inh HTS	rRNA inh HTS OD600	rRNA inh HTS RFP	LANA-H2A inh	ALR inh	B2AR ag
NC(=O)c1c(Nc2nc3c(F)cccc3s2)sc2c1CCCC2	nt	nt	nt	1.7	87*	-24
Cc1ccc(C(C[N+](=O)[O-])c2c(-c3ccccc3O)[nH][nH]c2=O)cc1 (stereo unspecified)	nt	nt	nt	-7.9	86*	18

Only part of the results is shown; count on the stated rates, not on these rows.
